# D2 potentiator – positive allosteric modulators of human D2 dopamine receptor; P14416; potentiation, % (concentration not given with the values); DiscoveRx D2 beta-arrestin cells, luminescence, 90 min; 100% = 57 uM dopamine signal; AID 624464; 0.23% of 360,000 active; active = potentiation of 50% or more; inconclusive = 30% to 50%; inactive = 30% or less;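 also: compound concentration not given in the record; tested on top of an EC20 dose of dopamine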
#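 D2 cells co-treated with compound plus 50 nM dopamine (EC20) for 90 min at 37 deg C to detect potentiation. Beta-arrestin recruitment was read as enzyme-fragment luminescence after 1 h at ambient temperature. Full response was set by 57 uM dopamine.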
# D2 agonist – activates the human D2 dopamine receptor; P14416; DiscoveRx PathHunter D2 beta-arrestin, luminescence, 90 min; 100% = 57 uM dopamine signal; activation, % (test concentration not listed); 0.084% of 360,000 active; AID 624465; in the data active = activation above about 40%; inconclusive = about 15% to 40%; inactive = below about 15%; also: compound concentration not given in the record; the text of the record calls up to 30% inactive
#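 DiscoveRx PathHunter D2 beta-arrestin cells (2,100/well) attached overnight, then compound-stimulated 90 min at 37 C in HBSS/10 mM HEPES/0.1% Tween-20 buffer; beta-galactosidase complementation read by luminescence after 1 h at ambient temperature. Dopamine 57 uM final (EC100) as control.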
# gsp agonist – agonists of gsp mutant (McCune-Albright syndrome); 0.13% of 340,000 active; gsp mutant cells, cAMP HTRF, 30 min; control for the full effect not named in the record; AID 624287; Potency, µM (highest dose often 76.9 µM), inactives show at the top dose activation (cAMP increase), hits mostly activators; active = well fitted activation curve with a large enough effect; inconclusive = small, poorly fitted or top-dose-only effect, or another doubt; inactive = no such curve, though single readings can be large or run the other way; cell line not stated here;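 also: phosphodiesterase inhibitor Ro 20-1724 added with compounds to block cAMP breakdown; potency is read from the fitted curve at half-maximal effect; nearly all actives have a fitted effect of over 60% in size; about a fifth of the inactives were tested at one dose only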
#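 Cells in DMEM/10% FBS with G418 were pretreated with compounds in DMSO plus […] (300 uM stock) for 30 min at 37C. cAMP was measured by HTRF (cAMP-d2 plus anti-cAMP antibody-K) after 30 min at room temperature.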
# Six1-Eya2 inh – blocks human Six1 binding to Eya2. AlphaScreen GST-Six1/His-Eya2 binding, biochemical; stronger effect = lower value; control for the full effect not named in the record. activity change, % (concentration not given with the values). 0.56% of 360,000 active; in the data active = activity change below about -65%; inconclusive = about -30% to -65%; inactive = above about -30%; also: % is scaled to controls: 0 for no effect and ±100 for the full control effect
# Target sequence (O00167 whole entry, looked up): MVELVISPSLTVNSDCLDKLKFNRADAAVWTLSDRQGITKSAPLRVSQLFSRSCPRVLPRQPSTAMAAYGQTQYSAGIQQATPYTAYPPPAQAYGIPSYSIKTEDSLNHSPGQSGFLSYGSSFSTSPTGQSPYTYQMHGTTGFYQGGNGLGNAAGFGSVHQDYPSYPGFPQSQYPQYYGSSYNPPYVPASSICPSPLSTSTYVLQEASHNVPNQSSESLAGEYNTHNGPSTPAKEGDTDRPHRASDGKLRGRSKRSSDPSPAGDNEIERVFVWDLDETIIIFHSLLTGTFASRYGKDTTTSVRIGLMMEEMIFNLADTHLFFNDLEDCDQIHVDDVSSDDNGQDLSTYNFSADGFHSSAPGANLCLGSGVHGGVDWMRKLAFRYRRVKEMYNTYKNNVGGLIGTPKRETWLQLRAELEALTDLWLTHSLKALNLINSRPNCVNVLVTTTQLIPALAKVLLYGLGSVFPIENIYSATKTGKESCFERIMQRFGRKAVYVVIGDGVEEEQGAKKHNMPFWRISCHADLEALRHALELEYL
# Target sequence (Q15475 whole entry, looked up): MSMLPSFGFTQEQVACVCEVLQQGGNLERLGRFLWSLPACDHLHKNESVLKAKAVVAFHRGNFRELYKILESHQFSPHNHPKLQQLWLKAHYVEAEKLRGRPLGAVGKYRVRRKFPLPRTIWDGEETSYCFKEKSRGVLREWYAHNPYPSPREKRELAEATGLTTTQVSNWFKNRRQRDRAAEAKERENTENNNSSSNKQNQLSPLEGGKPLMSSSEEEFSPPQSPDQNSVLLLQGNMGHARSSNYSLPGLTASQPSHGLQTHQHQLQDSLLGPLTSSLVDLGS
#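 Homogeneous AlphaScreen proximity assay pairing GST-Six1 with His-tagged Eya2 (added as 5X mix: 250 nM and 500 nM) in 50 mM Tris pH 8.0, 300 mM NaCl, 1 mM TCEP. Glutathione donor and nickel acceptor beads; 1 h, 37 °C, dark.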
# gsp antag – antagonists of gsp mutant (McCune-Albright syndrome); gsp-mutant cells, cAMP HTRF, 30 min; control for the full effect not named in the record; Potency, µM (titrated, usually from 76.9 µM), for the others: top-dose activity change, negative = inhibition, usual class: inhibitors; 0.4% of 340,000 active; AID 624288; active = falling curve of any shape with a large fitted effect; inconclusive = falling curve, mostly with a smaller effect; inactive = flat or rising curve; cell line not stated here;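 also: intracellular cAMP measured with PDE inhibitor Ro 20-1724 present during compound exposure; potency is read from the fitted curve at half-maximal effect; % is scaled to controls: 0 for no effect and ±100 for the full control effect; nearly all actives have a fitted effect of over 65% in size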
#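 Measurement of cellular cAMP by homogeneous time-resolved fluorescence following a 30 min compound exposure at 37C. The PDE inhibitor […] was present throughout; the assay buffer was DPBS with 0.05% BSA and 0.005% Tween 20.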
# CtBP-E1A inh – CtBP/E1A binding inhibition. activity change, % (concentration not given with the values). 0.49% of 340,000 active. AlphaScreen GST-E1A/His-CtBP binding, 1536-well; stronger effect = lower value; control for the full effect not named in the record; in the data active means activity change below about -65%; inconclusive means about -30% to -65%; inactive means above about -30%; also: % is scaled to controls: 0 for no effect and ±100 for the full control effect
#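 AlphaScreen with 125 nM GST-E1A and 125 nM His-CtBP (5X stocks) in Tris pH 8.0, 300 mM NaCl, BSA, Tween 20, TCEP. Compounds preincubated 2 h at 37 deg C, then glutathione donor/nickel acceptor beads added for 1 h at 37 deg C in dark.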
# * marks the source's active call; other numbers are inactive results; ? = inconclusive; . = not tested or not shown; [ ] = another dose, or the depositor's remark.
SMILES,D2 potentiator,D2 agonist,gsp agonist,Six1-Eya2 inh,gsp antag,CtBP-E1A inh
CC(=O)Nc1ccc(S(=O)(=O)NCC2CCC(C(=O)NCCCOC(C)C)CC2)cc1 (configuration not stated),-9,-6.8,?,-1,10%,.
Cc1ccc(C)c(Cn2nnc3c(=O)[nH]c(C4CCCN(C(=O)C5CCC5)C4)nc32)c1 (configuration not stated),-1,-4.4,-7%,-3,-6%,-1
COc1ccc(S(=O)(=O)NC2CCCCCC2)c(OC)c1,-7,-4.1,37%,1,1%,3
Cc1cc(C(F)F)n2nc(C(=O)NCc3ccccc3F)nc2n1,14,-2.3,7%,14,3%,-1
COc1ccccc1C=C1SC(=S)NC1=O,-2,-0.2,?,8,-3%,-13
COc1nc(-c2ccccc2)ccc1-c1noc(-c2ccccc2)n1,-2,0.8,22%,18,1%,14
O=C(N=C1SCC(=O)N1c1ccccc1Cl)c1ccco1,-2,0.9,-4%,0,-13%,3
Cc1ccccc1OCCC(=O)Nc1cc(S(=O)(=O)N2CCCCC2)ccc1N1CCN(C)CC1,-14,-4.3,6%,-12,-10%,.
O=C(O)CN1C(=O)C(=O)N(Cc2ccc(Cl)c(Cl)c2)C1=O,-5,-1.7,21%,0,2%,8
O=C(OCC(=O)N1CCCCC1)c1ccc2c(c1)C(=O)N(Cc1ccco1)C2=O,-2,-1.0,-33%[inhibitor],-3,-8%,-2
Cc1ccc(S(=O)(=O)N2CCOCC2)cc1C(=O)N1CCN(S(=O)(=O)c2cccs2)CC1,-6,-0.7,-21%,6,2%,1
COc1ccc(/C=N/Nc2nc(C)cc(=O)[nH]2)cc1OC,-2,4.7,0%[15.4 µM],?,4%,-12
Fc1ccc(CN2CCN(C(c3ccccc3)c3ccccc3)CC2)cc1,-73,0.5,-108%[inhibitor],2,-16%,.
COc1ccccc1C(=O)Nn1cnc2ccccc2c1=O,-4,-3.1,-4%,-4,0%,7
O=C(CN1C(=O)NC2(CCc3ccccc32)C1=O)NCC(=O)Nc1ccc(F)cc1 (configuration not stated),-2,4.4,-64%[inhibitor],0,-3%,3
O=C(c1ccccc1)N1CCN(C(=S)NCc2ccco2)CC1,1,-22,-5%[15.4 µM],-4,3%,1
Cc1[nH]c(=S)[nH]c(=O)c1CCCO,-7,7.2,-4%,4,6%,4
COCCN(C(=S)Nc1cccc(C)c1C)C(C)c1ccco1 (configuration not stated),-7,-2.6,-24%[15.4 µM],-6,2%,4
CC1CCC(n2c(=S)[nH]c3ccccc3c2=O)CC1 (configuration not stated),-4,2.0,-18%,3,5%,2
CCOc1cc(S(=O)(=O)N2CCCCC2)ccc1F,-5,-2.6,-36%,1,1%,9

# Continued; it opens with the 5 that closed the last part.
SMILES,D2 potentiator,D2 agonist,gsp agonist,Six1-Eya2 inh,gsp antag,CtBP-E1A inh
O=C(c1ccccc1)N1CCN(C(=S)NCc2ccco2)CC1,1,-22,-5%[15.4 µM],-4,3%,1
Cc1[nH]c(=S)[nH]c(=O)c1CCCO,-7,7.2,-4%,4,6%,4
COCCN(C(=S)Nc1cccc(C)c1C)C(C)c1ccco1 (configuration not stated),-7,-2.6,-24%[15.4 µM],-6,2%,4
CC1CCC(n2c(=S)[nH]c3ccccc3c2=O)CC1 (configuration not stated),-4,2.0,-18%,3,5%,2
CCOc1cc(S(=O)(=O)N2CCCCC2)ccc1F,-5,-2.6,-36%,1,1%,9
COc1ccc(CCCNC(=O)C2(C)Cc3c(-c4ccc5c(c4)OCO5)ccnc3O2)cc1 (configuration not stated),2,4.9,.,-11,.,-2
Cc1ccc(OCCNC(=O)[C@H]2O[C@@H](n3ccc(N)nc3=O)[C@H](O)[C@@H]2O)cc1C,-5,1.0,.,3,.,4
COc1ccc(N(C)S(=O)(=O)c2cccc(C(=O)OCC(=O)N(C)c3ccccc3)c2)cc1,0,2.1,0%,-3,?,1
N/C(=N\N=C/c1ccc(F)cc1)N/N=C\c1ccc(F)cc1,-44,4.1,19%,1,-1%,.
COc1cccc(C(=O)NN2CCOCC2)c1,-19,-0.9,2%,-4,-3%,.
CCCC(=O)NC(Nc1cccc(C(F)(F)F)c1)C(Cl)(Cl)Cl (configuration not stated),-14,-3.0,-27%,10,-11%,10
Cc1[nH]c(C)c(S(=O)(=O)N2CCCCC2C)c1C(=O)N1CCCC1 (configuration not stated),-5,-4.2,19%,-2,9%,-1
COc1cc(/C=N/NC(=O)c2ccc(O)cc2)ccc1OCC(=O)Nc1cccc([N+](=O)[O-])c1,1,-0.7,?,-7,8%,0
COCC(=O)Nc1ccccc1-c1ccccc1,-4,0.1,14%,7,-3%,4
CCOC(=O)C1=C(C)N(CCCCCC(=O)O)C(=O)NC1c1ccc(Br)cc1 (configuration not stated),-1,-2.4,-7%,-5,-6%,6
Cc1noc(C)c1COC(=O)CNC(=O)c1ccc(Cl)cc1,-1,0.4,1%,-3,-7%,2
O=S1(=O)CCC(NC(=S)NC2CCS(=O)(=O)C2)C1 (configuration not stated),-9,-3.6,-11%[15.4 µM],-15,-1%,1
CC1=C(C)NC(=S)SC1,-13,-0.6,-28%,5,2%,14
COC(=O)C(NC(C)=O)(Nc1cc(C)ccn1)C(F)(F)F (configuration not stated),1,-3.8,3%[15.4 µM],8,9%,1
Cc1ccc(C)c(NC(=O)CCC(=O)NNC(=O)c2cccc([N+](=O)[O-])c2)c1,-1,-0.4,-4%,3,4%,5
CCSc1ccccc1C(=O)Nc1ccc(S(=O)(=O)NC(C)=O)cc1,-7,-1.7,-13%,1,9%,6
CC(CC(=O)Nc1ccccc1)NCCCN1CCCC1=O (configuration not stated),-4,3.3,-18%,3,7%,9
C(=NOCc1ccccc1)c1cccnc1,-5,-1.0,4%[15.4 µM],0,2%,5
CCc1nc2sc(C(C)=O)c(N)c2c2c1CCCC2,-1,-5.4,?,-2,-10%,.
CCC(OC(=O)c1ccco1)C(=O)NC1CCCC1 (configuration not stated),-3,-1.5,6%,10,12%,7
C/C(CCc1ccccc1)=N\NC(=O)COc1ccccc1C,8,2.2,-14%[15.4 µM],-5,12%,6
COc1ccc(CCN2CCCC(CN(C)Cc3cc(OC)ccc3OC)C2)cc1 (configuration not stated),2,-5.2,5%,-11,3%,-2
COc1cc(NC(=O)C2CCN(c3cnccn3)CC2)cc(OC)c1OC,-17,-5.5,?,-2,7%,-8
CCOc1ccc(CCN2C(=S)N([C@@H](CC(C)C)CN3CCCC3CN3C(=S)NC[C@@H]3Cc3ccc(O)cc3)C[C@@H]2Cc2ccccc2)cc1 (some centres not stated),-3,1.5,.,-13,3%,-14
COc1ccc(NC(=S)NC2CC3CCC(C2)N3Cc2ccco2)cc1 (configuration not stated),-31,-5.3,-21%,-8,4%,5
COc1ccc(CCN2C(=O)N[C@@H](C(C)C)C2=O)cc1,-1,-1.1,29%,-4,6%,5
CC(Oc1ccc2c3c(c(=O)oc2c1)CCC3)C(=O)NCc1cccnc1 (configuration not stated),-8,-2.4,?,-2,1%,-13
COCc1ccc(C(=O)NCC2(N3CCCCC3)CCCCC2)cc1,2,0.0,2%,6,13%,6
Fc1cccc(-c2n[nH]c(=S)n2-c2ccccc2)c1,-4,5.8,?,3,4%,.
CC(C)(C)NC(=O)COC(=O)c1ccc(F)cc1Cl,-5,-6.7,-16%,5,11%,-6
Cn1nnc(NC(=O)c2ccc(C(C)(C)C)cc2)n1,-18,-2.1,-20%,-1,-4%,3
Cc1cccc(NC(=O)NN2CCN(C)CC2)c1C,-6,-2.6,11%,2,8%,2
CCC(C)(C(=O)NC1CCCCC1)N(C(=O)CNC(C)=O)c1c(C)n(C)n(-c2ccccc2)c1=O (configuration not stated),-6,-2.4,?,-1,-1%,1
COc1ccc(NC(=O)c2nc3nc(C)cc(C(F)F)n3n2)cc1OC,-7,1.8,1%,6,2%,7
COc1ccc(NC(=O)CNCc2ccc(Cl)cc2)cc1S(=O)(=O)N1CCOCC1,-7,7.5,23%,6,-13%,0
Cc1c(Cl)c([N+](=O)[O-])nn1CCCC(=O)Nc1sc2c(c1C#N)CCC2,-7,2.4,-19%,-15,1%,4
COc1cccc(/C=N/NC(=O)c2cccc(N3CCCC3=O)c2)c1,0,-2.5,-3%,-3,-14%,1
O=c1ccn([C@@H]2O[C@H](CO)[C@@H](O)[C@H]2O)c(=O)[nH]1,7,-3.0,.,3,-5%,2
CN(c1ccccc1)S(=O)(=O)c1ccc(C(=O)NCCc2ccc(F)cc2)cc1,-4,-2.3,-2%[15.4 µM],8,-6%,8
COc1cccc(-c2cc(=O)c3cc(NC(=O)c4ccc(Cl)cc4)ccc3[nH]2)c1,-2,-1.0,7%,3,-1%,7
Cc1ccc(Nc2nc3ccccc3nc2-n2nc(C)cc2C)cc1,-13,-7.0,2%,22,-5%,32
O=C(NC1CCCCCCC1)c1cnccn1,4,1.3,3%,6,-5%,7
CN(CC(=O)Nc1ccc(F)c(Cl)c1)S(=O)(=O)c1ccc2c(c1)n(C)c(=O)c(=O)n2C,-10,-4.7,-5%,10,-9%,.
COc1ccc(NC(=O)CCS(=O)(=O)c2cccc3nonc23)cc1,7,-3.4,21%[15.4 µM],0,3%,-1
Cc1cccc(NC(=O)c2cc3cc([N+](=O)[O-])ccc3s2)n1,-4,9.9,-45%[inhibitor],3,-5%,-12
NS(=O)(=O)c1ccc(CCNC(=O)c2ccc([N+](=O)[O-])cc2[N+](=O)[O-])cc1,?,?,-14%[15.4 µM],-1,18%,1
CCOC(=O)N1CCN(C(=O)COC(=O)C2CCN(S(=O)(=O)c3c(C)c(C)cc(C)c3C)CC2)CC1,24,7.8,3%[15.4 µM],-10,-3%,-3
Cc1ccc(S(=O)(=O)NCc2ccc(C(=O)NC3CCC(C)CC3)cc2)cc1 (configuration not stated),-8,0.8,?,0,7%,0
CN(CC(=O)Nc1ccccc1Cl)C(=O)COC(=O)CSc1ccc(F)cc1,-22,-4.5,-37%,-1,8%,7
Cc1ccccc1C(=O)Nc1ccc(CN2CCOCC2)cc1,-3,-1.4,12%,6,11%,-1
C/C(CC1CC(COCC(C)C)OC1=O)=N\NC(N)=S (configuration not stated),-6,-1.1,-13%,8,10%,-8
CC(C)C#Cc1cnc2c(c1)C(=O)N([C@@H](C)CO)C[C@@H](C)[C@H](CN(C)Cc1cccc(F)c1)O2,0,-12,-23%,-13,.,-7
Cc1cccc(NC(=O)C2COc3ccccc3O2)n1 (configuration not stated),-7,-3.4,-19%,9,9%,8

# No enrichment for hits (roughly 1.4% active in at least one column).
